TRPV1 PAM: HTS Assay for Compounds that Act as Potentiators of the Vanilloid Receptor 1. TRPV1-expressing cells, Fluo-8 calcium influx, capsaicin EC20 potentiation; host cell line not named in the record; control for the full effect not named in the record. potentiation, % at 8.33 µM. 320,000 tested, 0.02% active. AID 540277, 2011; active means potentiation above 80%; inconclusive means 30% to 80%; inactive means below 30%; further: 0% is about no effect
Target sequence (Q8NER1 whole entry, looked up): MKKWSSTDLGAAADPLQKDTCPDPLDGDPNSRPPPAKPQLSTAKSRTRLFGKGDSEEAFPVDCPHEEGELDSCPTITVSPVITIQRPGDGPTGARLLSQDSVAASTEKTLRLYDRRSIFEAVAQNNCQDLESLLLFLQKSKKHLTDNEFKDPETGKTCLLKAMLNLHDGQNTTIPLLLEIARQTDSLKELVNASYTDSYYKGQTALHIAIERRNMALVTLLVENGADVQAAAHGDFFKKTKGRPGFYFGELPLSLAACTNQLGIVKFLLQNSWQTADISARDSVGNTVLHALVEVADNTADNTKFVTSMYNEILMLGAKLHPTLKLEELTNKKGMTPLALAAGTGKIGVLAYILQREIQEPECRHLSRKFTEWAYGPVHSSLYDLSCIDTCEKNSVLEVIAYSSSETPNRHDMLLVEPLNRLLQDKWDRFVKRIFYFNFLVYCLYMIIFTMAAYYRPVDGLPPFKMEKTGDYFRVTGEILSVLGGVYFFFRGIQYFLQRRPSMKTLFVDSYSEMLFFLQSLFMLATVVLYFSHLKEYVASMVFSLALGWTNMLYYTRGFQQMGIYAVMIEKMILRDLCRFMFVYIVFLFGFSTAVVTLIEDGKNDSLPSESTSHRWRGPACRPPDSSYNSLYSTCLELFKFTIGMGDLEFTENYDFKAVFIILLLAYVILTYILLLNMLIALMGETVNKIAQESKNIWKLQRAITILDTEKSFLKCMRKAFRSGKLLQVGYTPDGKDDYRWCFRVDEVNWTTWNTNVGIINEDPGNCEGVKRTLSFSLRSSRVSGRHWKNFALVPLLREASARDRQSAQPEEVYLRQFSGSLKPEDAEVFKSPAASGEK
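TRPV1-expressing cells were cultured overnight at 35.5C and loaded with Fluo-8 calcium dye for 40 to 90 min at room temperature. After a 10 s baseline, compound was added and calcium influx was read kinetically for 3 min (ex 480/em 520 nm).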
Menin MLL FP FL: qHTS Assay for Inhibitors Targeting the Menin-MLL Interaction in MLL Related Leukemias: Competition With Fluorescein Labeled MLL-derived Peptide; Fluorescence polarization, fluorescein-MLL peptide displacement from menin; FP activity change, % at 61.4 µM; 290,000 tested, under 10 active; inconclusive = falling polarisation curve, or a change in total fluorescence; inactive = total fluorescence flat and polarisation flat or rising; no compound was filed as active; the % refers to the polarisation; negative = inhibition;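 further: % of control where 0% means no effect; inhibitors lower the polarisation; unlabelled MLL peptide was the positive control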
gsp agonist: qHTS for Agonist of gsp, the Etiologic Mutation Responsible for Fibrous Dysplasia/McCune-Albright Syndrome: qHTS. gsp mutant cells, cAMP HTRF, 30 min; control for the full effect not named in the record. Potency, µM (top dose mostly 76.9 µM), inactives show at the top dose activation (cAMP increase), actives largely listed as activators. 340,000 tested, 0.13% active. AID 624287, 2012; active = well fitted activation curve with a large enough effect; inconclusive = small, poorly fitted or top-dose-only effect, or another doubt; inactive = no such curve, though single readings can be large or run the other way; cell line not stated here;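 further: phosphodiesterase inhibitor Ro 20-1724 added with compounds to block cAMP breakdown; potency means the concentration at half of the fitted maximal effect; nearly all actives have a fitted effect of over 60% in size; about a fifth of the inactives were tested at one dose only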
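Cells stably selected in G418 were plated at 2000/well, grown 16-24 hr, then given compounds in DMSO with the PDE inhibitor […] (300 uM solution added) for 30 min at 37C; cAMP was read by HTRF.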
gsp antagonist: qHTS for Antagonists of gsp, the Etiologic Mutation Responsible for Fibrous Dysplasia/McCune-Albright Syndrome: qHTS; gsp-mutant cells, cAMP HTRF, 30 min; control for the full effect not named in the record; Potency, µM (titrated, usually from 76.9 µM), without a hit: at the highest dose activity change, negative = inhibition, hits mostly inhibitors; 340,000 tested, 0.4% active; active = falling curve of any shape with a large fitted effect; inconclusive = falling curve, mostly with a smaller effect; inactive = flat or rising curve; cell line not stated here;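 further: intracellular cAMP measured with PDE inhibitor Ro 20-1724 present during compound exposure; potency means the concentration at half of the fitted maximal effect; on the % scale 0 is the no-effect control and ±100 the full control effect; nearly all actives have a fitted effect of over 65% in size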
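HTRF cAMP measurement after 30 min RT detection following 30 min, 37C compound treatment alongside […] (added as 300 uM solution) in G418-selected cells seeded at 2000/well and grown 16–24 h.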
TRPML1 blocker: qHTS for Inhibitors of the Human Mucolipin Transient Receptor Potential 1 (TRPML1) | TRPML1-inducible cells, Ca2+ dye fluorescence, FDSS; stronger effect = lower value; inhibition of EC80 agonist-evoked calcium signal | activity change, negative = inhibition, % (no concentration beside the values) | 390,000 tested, 0.02% active | AID 624415, 2012; in the data active means activity change below about -50%; inconclusive means about -30% to -50%; inactive means above about -30%;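 further: stimulus is agonist 54-4 at its EC80 concentration; on the % scale 0 is the no-effect control and ±100 the full control effect; compound concentration not given in the record; the text of the record puts the active cut at -80%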
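Tet-induced TRPML1-DL cells loaded with Ca8 no-wash calcium dye were read kinetically on FDSS. Compound addition was followed by EC80 agonist 54-4 (4 uM final); inhibition was read over 110 s.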
Sfp PPTase inh: qHTS Assay for Inhibitors of Bacillus subtilis Sfp phosphopantetheinyl transferase (PPTase); Biochemical Sfp PPTase activity, qHTS; Potency, µM, for inactives: max response, negative = inhibition, usual class: inhibitors; 310,000 tested, 3.5% active; active means well fitted inhibition curve with a large enough effect; inconclusive means small, poorly fitted or top-dose-only effect, or another doubt; inactive means no such curve, though single readings can be large or run the other way;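 further: the enzyme is Sfp with the accession as filed and its product quenches rhodamine fluorescence; potency means the concentration at half of the fitted maximal effect; 0% = enzyme reaction without inhibitor and -100% = no enzyme wells; top concentration of the series not given in the record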
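Compounds were incubated with enzyme (final 15 nM) for 15 min at room temperature before substrate addition started the reaction. Fluorescence at 525 nm excitation, 598 nm emission was recorded immediately and after 30 minutes.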
ClpP mod: qHTS Assay for Activators of ClpP; 340,000 tested, 1.9% active; Potency, µM (titrated, usually from 57.5 µM), for the others: at the top dose activity change, negative = active; purified B. subtilis ClpP, FRET peptide cleavage, 20 min; ATP-dependent Clp protease proteolytic subunit (Bacillus subtilis (strain 168)), P80244; active = well fitted falling curve with a large enough effect; inconclusive = small, poorly fitted or top-dose-only effect; inactive = no such curve, though single readings can be large or run the other way; further: potency means the concentration at half of the fitted maximal effect; the source files actives as falling curves though it sought activators and does not explain the sign; nearly all actives have a fitted effect of over 65% in size; many hits overshoot -100%
Target sequence (P80244 whole entry, looked up): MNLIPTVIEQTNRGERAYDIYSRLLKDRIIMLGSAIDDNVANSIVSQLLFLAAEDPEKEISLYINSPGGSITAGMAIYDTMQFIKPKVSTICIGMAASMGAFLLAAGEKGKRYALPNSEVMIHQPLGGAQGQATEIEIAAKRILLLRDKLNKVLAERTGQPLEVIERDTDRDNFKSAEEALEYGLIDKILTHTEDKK
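Buffer: 100 mM Tris/HCl pH8, 100 mM KCl, 0.05% low protease BSA, 2.5% glycerol, 0.01% Tween-20. ClpP 10 microg/mL final; 20 min RT; delta FRET normalized to ADEP and DMSO controls.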
Starred values were filed as active, the others as inactive; ? = inconclusive; . = no result given; & = joins results of further samples; [ ] = another dose, or the depositor's remark.

SMILES	TRPV1 PAM	Menin MLL FP FL	gsp agonist	gsp antagonist	TRPML1 blocker	Sfp PPTase inh	ClpP mod
CCc1cc2c(C)cc(=O)oc2cc1Oc1ncccc1[N+](=O)[O-]	28	2.5	.	.	.	18%	.
Cc1cc(-c2nnc(SCC(=O)Nc3cccc(F)c3)n2N)n[nH]1	5	.	-7%	2%	10	7%	0.0%
CS(=O)(=O)c1ccc(Cl)c(NC(=O)COC(=O)c2cccc(S(=O)(=O)N3CCCC3)c2)c1	11	.	-10%[15.4 µM]	-13%	7	.	.
O=C(NCCOCCNC(=O)OCc1ccccc1)OCc1ccccc1	0	-0.6	6%[15.4 µM]	.	6	17%	.
CC1CCCCN1CCCNC(=O)c1ccc(NC(=O)C2=CSCCO2)cc1 (centres undefined)	0	.	11%	5%	-9	8%	-3.4%
O=C(O)CCCN1C(=O)NC2NC(=O)NC21 (centres undefined)	-13	0.4	7%	5%	-3	11%	1.0%
O=C(O)c1ccc(NCc2cccnc2)cc1	6	5.7	-36%[inhibitor]	8%	-3	-2%	-1.8%
NC(=O)Cc1nc2scc(-c3ccc(Cl)cc3)c2c(=O)[nH]1	2	-1.0	?	-2%	9	2%	.
COc1ccccc1-n1c(C)nnc1SCC(=O)NCc1ccccc1	10	-3.7	-25%	-3%	15	7%	-0.8%
O=C(Nc1nc(-c2ccc3c(c2)OCO3)cs1)C1CC1	-7	2.1	-51%[inhibitor]	-9%	-5	-3%	-2.0%
Cc1c(C(=O)Nc2cccc(Cl)c2)oc2ccc(S(=O)(=O)N3CCC4(CC3)OCCO4)cc12	10	-2.8	10%	1%	-13	?	-4.5%
Cc1oc2c(c(C)cc3oc(=O)c(CC(=O)N[C@H](C(=O)O)C(C)C)c(C)c32)c1C	9	1.9	?	7%	1	2%	-12%
CC(C)(C)C(=O)N1CCC(O)(CS(=O)(=O)c2ccc(Cl)c(Cl)c2)CC1	18	2.1	-16%[15.4 µM]	15%	6	7%	0.6%
O=C(/C=C/c1ccc(OC(F)F)cc1)OCC(=O)N1CCN(C(=O)c2ccco2)CC1	0	2.4	-67%[inhibitor]	-10%	-4	-8%	0.2%
CCc1ccc(CN(C)Cc2nc(Cc3cccc(C(F)(F)F)c3)no2)nc1	5	7.9	-1%[15.4 µM]	9%	11	-2%	.
Cc1sc2nc(CSCC(=O)N(C)c3ccccc3)[nH]c(=O)c2c1C	0	15	3%	-17%	14	-14%	-20%
O=C(NCC(=O)N1CCN(c2ccccc2O)CC1)c1ccc(Br)o1	19	.	-24%[15.4 µM]	6%	3	.	.
CCOc1cc2[nH]c(=S)n(CCC(=O)NCc3ccc(OC)cc3)c(=O)c2cc1OCC	-9	-1.7	19%	3%	-6	4%	1.0%
CN(CC(=O)Nc1ccccc1C(F)(F)F)C(=O)c1cc(Cl)nc2ccccc12	11	.	17%	-8%	-2	.	-8.4%
CC(=O)OCCN(CCCn1c(-c2ccncc2)nc2ccccc21)c1nc(-c2ccc(C)cc2)cs1	3	-1.4	.	-9%	9	-11%	0.8%
COC(=O)[C@H]1C[C@H](OC(=O)NC2CCCC2)[C@@]2(O)CN(S(=O)(=O)c3ccc(C)cc3)CC2[C@H]1C(=O)OC (some centres undefined)	.	.	-23%	.	-10	.	-0.1%
CC(=O)c1ccc(NC(=O)Cn2cnc(S(=O)(=O)N3CCCCC3)c2)cc1	0	.	25%	9%	-8	-4%	-2.6%
COC(=O)N/N=C\c1cc2c(cc1Br)OCO2	3	0.2	-26%	-2%	?	2%	.
Cc1cc(OCC(=O)NNC(=O)c2cccs2)ccc1Br	-6	3.5	21%	5%	16	17%	.
Cc1ccc(NC(=O)NC2CC(=O)N(c3ccc4c(c3)OCCO4)C2)c(C)c1 (centres undefined)	-7	.	13%[15.4 µM]	0%	-17	.	.

The listing continues.
SMILES	TRPV1 PAM	Menin MLL FP FL	gsp agonist	gsp antagonist	TRPML1 blocker	Sfp PPTase inh	ClpP mod
COc1ccc(NC(=O)N2CCCC2C(=O)NCCc2ccccc2)cc1 (centres undefined)	?	2.1	-21%	14%	-9	20%	2.0%
COc1cc(OC)cc(-c2c(-c3ccsc3)c3cc(Br)ccc3n2C)c1	-2	.	.	-20%	-11	.	-3.9%
CCOC(=O)c1cn2c(C)cccc2n1	12	0.9	?	7%	-21	15%	.
CC(=O)c1ccc(NC(=O)c2ccc(S(=O)(=O)c3ccccc3)cc2)cc1	8	0.8	3%[15.4 µM]	-27%	-7	3%	-1.3%
Cn1nc(NC(=O)CC23CC4CC(CC(C4)C2)C3)c2c(F)cccc21	4	2.7	-66%[inhibitor]	-8%	2	?	-4.7%
CCN(CC)c1ccc(/C=N/N2CCN(Cc3ccccc3Cl)CC2)cc1	-1	2.1	-3%[15.4 µM]	-6%	-6	-8%	1.2%
CCC(C)(C)n1nnnc1C(c1ccc(Cl)cc1)N1CCN(C)CC1 (centres undefined)	-7	-1.8	-22%	4%	6	0%	1.2%
Cc1cccc(C)c1NC(=O)CN(C)C(=O)c1ccc(COc2ccccc2)cc1	4	0.0	-21%[15.4 µM]	-4%	-9	-3%	-1.4%
O=C(CSc1nc2cc(Cl)ccc2c(=O)n1Cc1ccco1)Nc1ccc(S(=O)(=O)N2CCOCC2)cc1	2	8.6	19%	-2%	-16	3%	-9.0%
CCOc1ccc(NS(=O)(=O)c2ccc(C(=O)N3CCCCCC3)cc2)cc1	-7	.	-14%[15.4 µM]	-9%	30	.	0.7%
O=C(CCS(=O)(=O)c1ccccc1)N1CCN(c2ccccc2)CC1	-3	.	22%[15.4 µM]	8%	-7	17%	-8.0%
CCCCS(=O)CC(O)COc1ccc(C(C)(C)C)cc1 (centres undefined)	-14	1.3	7%	2%	-6	1%	-2.6%
C/C(N)=C(/C#N)C(=O)COc1ncnc2ccccc12	8	3.6	-19%	14%	26	6%	-1.2%
COc1ccc(N2C(=O)[C@@H]3[C@H](C2=O)[C@H]2c4ccccc4C=CN2[C@@H]3C(C)=O)cc1	3	?	2%	3%	-15	-16%	-2.3%
O=C(NC(=S)Nc1ccccc1N1CCOCC1)c1ccc(-c2cccc(Cl)c2)o1	9	2.6	9%	12%	18	-2%	11%
Cc1cc(N2C(=O)C(O)=C(C(=O)c3ccc(C)o3)C2c2ccc(OCc3ccccc3)cc2)no1 (centres undefined)	4	.	5%[15.4 µM]	5%	25	-1%	.
COC(=O)c1ccc(C(=O)N=c2sccn2C)cc1	-2	0.9	16%[15.4 µM]	0%	3	23%	.
CCCc1nc2nc(C)c(NS(=O)(=O)c3ccc4c(c3)CCCC4)c(=O)n2[nH]1	1	4.9	1%	4%	11	23%	.
CCCC(=O)NCCc1cc2ccc(C)c(C)c2[nH]c1=O	-3	-0.7	-1%	3%	-4	20%	-21%
CCCOCCOC(=O)C1=C(C)NC(=O)NC1c1cc(Cl)c(O)c(OC)c1 (centres undefined)	-13	-1.3	-3%	-10%	27	-9%	-2.3%
COc1cccc(/C=N/NC(=O)CC(=O)NCCc2ccccc2)c1OC	26	0.8	-34%[inhibitor]	9%	10	-9%	?
COc1ccc(CC(=O)Nc2ccc(C)c(S(=O)(=O)N3CCCCCC3)c2)cc1	-8	.	-9%	?	10	.	-0.2%
CCOC(=O)c1ccc(NC(=O)CSc2nnc(C3CCCCC3)n2C)cc1	-2	-1.5	-5%	7%	2	28%	-4.3%
COc1ccc(Br)c(-c2nnc(CS(=O)(=O)c3ccccc3)o2)c1	2	.	-25%	-4%	2	-5%	.
CCC[C@@H]1C[C@@]1(CCC)[C@@H](NC(=O)c1ccccc1)c1ccc(C(=O)OC)cc1	6	0.5&-6.5	-28%	-20%	-6	-1%&14%	-2.5%
Cc1ccc(C(=O)OCC(=O)N(C)c2ccccc2)cc1C	-7	1.8	5%[15.4 µM]	5%	-10	-10%	.
O=c1[nH]c2cnccc2n1-c1ccccc1	-1	1.8	8%	15%	4	-8%	-3.4%

Compound profiles, as listed above. Order of screens: TRPV1 PAM | Menin MLL FP FL | gsp agonist | gsp antagonist | TRPML1 blocker | Sfp PPTase inh | ClpP mod
`COc1ccc(Br)c(-c2nnc(CS(=O)(=O)c3ccccc3)o2)c1` in the list: 2 | . | -25% | -4% | 2 | -5% | .
`CCCC(=O)NCCc1cc2ccc(C)c(C)c2[nH]c1=O` in the list: -3 | -0.7 | -1% | 3% | -4 | 20% | -21%
`CCCCS(=O)CC(O)COc1ccc(C(C)(C)C)cc1` (centres undefined) in the list: -14 | 1.3 | 7% | 2% | -6 | 1% | -2.6%
`Cc1cc(N2C(=O)C(O)=C(C(=O)c3ccc(C)o3)C2c2ccc(OCc3ccccc3)cc2)no1` (centres undefined) in the list: 4 | . | 5%[15.4 µM] | 5% | 25 | -1% | .
`COc1cc(OC)cc(-c2c(-c3ccsc3)c3cc(Br)ccc3n2C)c1` in the list: -2 | . | . | -20% | -11 | . | -3.9%

Shown with two lines to a compound: part of the list above.
Order of results – TRPV1 PAM, Menin MLL FP FL, gsp agonist, gsp antagonist, TRPML1 blocker, Sfp PPTase inh, ClpP mod
> O=C(NC(=S)Nc1ccccc1N1CCOCC1)c1ccc(-c2cccc(Cl)c2)o1
  9, 2.6, 9%, 12%, 18, -2%, 11%
> O=c1[nH]c2cnccc2n1-c1ccccc1
  -1, 1.8, 8%, 15%, 4, -8%, -3.4%

Source: PubChem BioAssay
